Menin-MLL FL inh: displaces fluorescein MLL peptide from human menin. FP activity change, % at 61.4 µM. Fluorescence polarization, fluorescein-MLL peptide displacement from menin. 290,000 tested, under 10 active. AID 1766; inconclusive = falling polarisation curve, or a change in total fluorescence; inactive = total fluorescence flat and polarisation flat or rising; no compound was filed as active; the % refers to the polarisation; negative = inhibition;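 note: % of control where 0% means no effect; inhibitors lower the polarisation; unlabelled MLL peptide was the positive control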
TRPV1 PAM: human TRPV1 potentiation. potentiation, % at 8.33 µM. TRPV1-expressing cells, Fluo-8 calcium influx, capsaicin EC20 potentiation; host cell line not named in the record; control for the full effect not named in the record. hit rate 0.02% among 320,000; active means potentiation above 80%; inconclusive means 30% to 80%; inactive means below 30%; note: 0% is about no effect
Target sequence (Q8NER1 whole entry, looked up): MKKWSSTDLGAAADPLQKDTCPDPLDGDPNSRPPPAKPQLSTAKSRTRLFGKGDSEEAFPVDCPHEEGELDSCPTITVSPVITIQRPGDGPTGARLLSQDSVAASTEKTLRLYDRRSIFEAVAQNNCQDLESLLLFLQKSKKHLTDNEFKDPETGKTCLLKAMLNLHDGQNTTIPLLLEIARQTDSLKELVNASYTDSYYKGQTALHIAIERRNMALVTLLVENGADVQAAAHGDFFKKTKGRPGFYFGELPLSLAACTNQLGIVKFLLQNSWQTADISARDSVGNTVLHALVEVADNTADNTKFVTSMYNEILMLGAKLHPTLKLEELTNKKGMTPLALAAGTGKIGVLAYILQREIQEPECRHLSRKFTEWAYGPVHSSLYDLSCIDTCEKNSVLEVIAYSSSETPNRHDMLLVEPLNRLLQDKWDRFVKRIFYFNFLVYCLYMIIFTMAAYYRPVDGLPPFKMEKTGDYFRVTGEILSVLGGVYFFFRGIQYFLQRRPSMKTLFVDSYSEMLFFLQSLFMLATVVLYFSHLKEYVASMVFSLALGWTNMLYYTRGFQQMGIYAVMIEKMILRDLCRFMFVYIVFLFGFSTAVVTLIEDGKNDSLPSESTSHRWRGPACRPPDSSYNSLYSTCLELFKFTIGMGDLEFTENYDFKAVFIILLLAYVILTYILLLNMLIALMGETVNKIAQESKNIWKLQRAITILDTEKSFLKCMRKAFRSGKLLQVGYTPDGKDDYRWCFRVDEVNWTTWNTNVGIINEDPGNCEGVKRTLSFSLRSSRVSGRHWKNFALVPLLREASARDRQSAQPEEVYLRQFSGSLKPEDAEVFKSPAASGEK
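TRPV1-expressing cells were cultured overnight at 35.5C and loaded with Fluo-8 calcium dye for 40 to 90 min at room temperature. After a 10 s baseline, compound was added and calcium influx was read kinetically for 3 min (ex 480/em 520 nm).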
D2 potentiator: potentiates the human D2 dopamine receptor allosterically; DiscoveRx D2 beta-arrestin cells, luminescence, 90 min; 100% = 57 uM dopamine signal; potentiation, % (test concentration not listed); hit rate 0.23% among 360,000; AID 624464; active = potentiation of 50% or more; inconclusive = 30% to 50%; inactive = 30% or less;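 note: compound concentration not given in the record; tested on top of an EC20 dose of dopamine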
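PathHunter D2 cells, attached overnight at 37 deg C, received compound in DMSO plus dopamine at EC20 (50 nM final) for 90 min at 37 deg C. Beta-arrestin recruitment was read as luminescence after 1 h with detection reagent at ambient temperature.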
Sfp PPTase inh: Sfp phosphopantetheinyl transferase inhibition; Biochemical Sfp PPTase activity, qHTS; hit rate 3.5% among 310,000; Potency, µM, for inactives: max response, negative = inhibition, usual class: inhibitors; Q9F4F7; AID 1490; active = well fitted inhibition curve with a large enough effect; inconclusive = small, poorly fitted or top-dose-only effect, or another doubt; inactive = no such curve, though single readings can be large or run the other way;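 note: the enzyme is Sfp with the accession as filed and its product quenches rhodamine fluorescence; potency is the fitted concentration of half-maximal effect; 0% = enzyme reaction without inhibitor and -100% = no enzyme wells; top concentration of the series not given in the record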
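Compounds were incubated with enzyme (final 15 nM) for 15 min at room temperature before substrate addition started the reaction. Fluorescence at 525 nm excitation, 598 nm emission was recorded immediately and after 30 minutes.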
gsp antagonist: antagonizes gsp, the McCune-Albright syndrome mutation; gsp-mutant cells, cAMP HTRF, 30 min; control for the full effect not named in the record; Potency, µM (series often up to 76.9 µM), without a hit: at the highest dose activity change, negative = inhibition, hits mostly inhibitors; hit rate 0.4% among 340,000; active = falling curve of any shape with a large fitted effect; inconclusive = falling curve, mostly with a smaller effect; inactive = flat or rising curve; cell line not stated here;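 note: intracellular cAMP measured with PDE inhibitor Ro 20-1724 present during compound exposure; potency is the fitted concentration of half-maximal effect; % is set by controls: 0 for no effect and ±100 for the full control effect; nearly all actives have a fitted effect of over 65% in size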
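HTRF cAMP read-out (cAMP-d2 plus anti-cAMP antibody-K in lysis buffer, 30 min RT). Before lysis, cells are exposed to compounds with […] for 30 min at 37C in DPBS containing Ca/Mg, BSA and Tween 20.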
gsp ag: gsp mutant agonism | gsp mutant cells, cAMP HTRF, 30 min; control for the full effect not named in the record | Potency, µM (top dose mostly 76.9 µM), inactives show top-dose activation (cAMP increase), actives largely listed as activators | hit rate 0.13% among 340,000 | AID 624287; active = well fitted activation curve with a large enough effect; inconclusive = small, poorly fitted or top-dose-only effect, or another doubt; inactive = no such curve, though single readings can be large or run the other way; cell line not stated here;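 note: phosphodiesterase inhibitor Ro 20-1724 added with compounds to block cAMP breakdown; potency is the fitted concentration of half-maximal effect; nearly all actives have a fitted effect of over 60% in size; about a fifth of the inactives were tested at one dose only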
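Cells stably selected in G418 were plated at 2000/well, grown 16-24 hr, then given compounds in DMSO with the PDE inhibitor […] (300 uM solution added) for 30 min at 37C; cAMP was read by HTRF.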
ClpP mod: qHTS Assay for Activators of ClpP. ATP-dependent Clp protease proteolytic subunit (Bacillus subtilis (strain 168)), P80244. purified B. subtilis ClpP, FRET peptide cleavage, 20 min. Potency, µM (highest dose often 57.5 µM), for the others: top-dose activity change, negative = active. hit rate 1.9% among 340,000. AID 651965, 2013; active = well fitted falling curve with a large enough effect; inconclusive = small, poorly fitted or top-dose-only effect; inactive = no such curve, though single readings can be large or run the other way; note: potency is the fitted concentration of half-maximal effect; the source files actives as falling curves though it sought activators and does not explain the sign; nearly all actives have a fitted effect of over 65% in size; many hits overshoot -100%
Target sequence (P80244 whole entry, looked up): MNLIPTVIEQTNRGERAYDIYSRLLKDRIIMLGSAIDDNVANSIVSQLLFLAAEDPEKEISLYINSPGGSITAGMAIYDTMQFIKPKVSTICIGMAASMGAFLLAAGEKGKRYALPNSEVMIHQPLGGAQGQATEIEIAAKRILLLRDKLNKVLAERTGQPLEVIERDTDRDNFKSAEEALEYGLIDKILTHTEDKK
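FRET quenching reversal measured ClpP activation: 10 microg/mL B. subtilis ClpP at pH 8 with the FRET-FV decapeptide, read at 430 nm after 320 nm excitation. The 20-min minus 0-min signal was scaled between DMSO/no-enzyme wells and ADEP (5.8 microM final).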
An asterisk follows results filed as active; [ ] = remark or other dose. Not a hit list; 5.1% or so of the library scored in one or more.

The opening 2 records as a preview:
`CCC(C(=O)NC1CCCC1)n1nc(C)n2c(cc3occc32)c1=O` (stereo unspecified) gave TRPV1 PAM -5, D2 potentiator 1, Sfp PPTase inh 10%, gsp antagonist 22%, gsp ag inconclusive and ClpP mod -3.6%.
O=C(C(c1ccccc1)c1ccccc1)N1CCCc2ccccc21 was read as Menin-MLL FL inh -0.1, TRPV1 PAM -20, D2 potentiator -4, Sfp PPTase inh -3%, gsp antagonist -13%, gsp ag -7% and ClpP mod -1.2%.

The whole of this part (from the top)
`CCC(C(=O)NC1CCCC1)n1nc(C)n2c(cc3occc32)c1=O` (stereo unspecified) gave TRPV1 PAM -5, D2 potentiator 1, Sfp PPTase inh 10%, gsp antagonist 22%, gsp ag inconclusive and ClpP mod -3.6%.
O=C(C(c1ccccc1)c1ccccc1)N1CCCc2ccccc21 was read as Menin-MLL FL inh -0.1, TRPV1 PAM -20, D2 potentiator -4, Sfp PPTase inh -3%, gsp antagonist -13%, gsp ag -7% and ClpP mod -1.2%.
`O=C(Nc1ccccc1Oc1ccccc1)C1=COCCO1` gave Menin-MLL FL inh -6.9, TRPV1 PAM -26, D2 potentiator -16, Sfp PPTase inh 1%, gsp antagonist 13%, gsp ag inconclusive and ClpP mod 0.2%.
Screening CCN(CC)S(=O)(=O)c1cccc(NC2=NCC(C)S2)c1 (stereo unspecified) returned Menin-MLL FL inh -2.2, TRPV1 PAM -3, D2 potentiator -4, Sfp PPTase inh 10%, gsp antagonist 3% and gsp ag 20%.
`COc1cc(OC)c2c(c1)OC(=O)CC2c1cc(OC)c(OC)c(OC)c1` (stereo unspecified) gave Menin-MLL FL inh -3.3, D2 potentiator 1, Sfp PPTase inh 8%, gsp antagonist 15% and ClpP mod 0.1%.
For O=C(CN(CC1CCCO1)S(=O)(=O)c1ccc(S(=O)(=O)NC2CC2)cc1)Nc1ccccc1 (stereo unspecified) the results were Menin-MLL FL inh -0.9, TRPV1 PAM -9, D2 potentiator -9, Sfp PPTase inh 7%, gsp antagonist 4%[15.4 µM], gsp ag -51% and ClpP mod -1.5%.
For Cc1cc(C)c(OCC(=O)N(Cc2ccc(N(C)C)cc2)C2CCS(=O)(=O)C2)c(C)c1 (stereo unspecified) the results were Menin-MLL FL inh 1.1, TRPV1 PAM 1, D2 potentiator 3, Sfp PPTase inh 19%, gsp antagonist -13% and gsp ag inconclusive.
For C=CCn1c(=O)c2c(nc(Br)n2Cc2ccccc2Cl)n(C)c1=O the results were Menin-MLL FL inh 0.2, TRPV1 PAM 16, D2 potentiator -1, Sfp PPTase inh 5%, gsp antagonist inconclusive, gsp ag -13% and ClpP mod 1.0%.
CN(C)CCCNC1=CC(=O)CC(c2ccccc2)C1 (stereo unspecified) was read as Menin-MLL FL inh 0.5, TRPV1 PAM inconclusive, D2 potentiator -12, Sfp PPTase inh 6%, gsp antagonist 13% and gsp ag -4%[15.4 µM].
CN(C(=O)CSc1nnc(-c2ccccc2)c(-c2ccccc2)n1)C1CCS(=O)(=O)C1 (stereo unspecified) was read as Menin-MLL FL inh 12, TRPV1 PAM -10, D2 potentiator -11, Sfp PPTase inh -4%, gsp antagonist -10%, gsp ag -10% and ClpP mod 2.7%.
For O=C(NC1CCCN(CCc2ccccc2)C1)c1c[nH]c2ccccc12 (stereo unspecified) the results were Menin-MLL FL inh -3.3, TRPV1 PAM 4, D2 potentiator -5, Sfp PPTase inh -7%, gsp antagonist 5%, gsp ag 19% and ClpP mod -1.4%.
`CCC1=NN(C(=O)c2cccc([N+](=O)[O-])c2)C(O)(c2ccc(C)cc2)C1` (stereo unspecified) gave Menin-MLL FL inh 1.6, TRPV1 PAM -10, D2 potentiator -19, Sfp PPTase inh 14%, gsp antagonist 5%, gsp ag -7% and ClpP mod -0.4%.
For Cc1ccc(C(=O)NC(=S)Nc2ccc(S(=O)(=O)N3CCN(C)CC3)cc2)cc1 the results were Menin-MLL FL inh 1.4, TRPV1 PAM 15, D2 potentiator -6, Sfp PPTase inh inconclusive, gsp antagonist -1%, gsp ag 3% and ClpP mod -3.5%.
CCOc1ccccc1N1CCN(C(=O)NC(C)c2ccc(F)c(F)c2)CC1 (stereo unspecified) was read as Menin-MLL FL inh -11, TRPV1 PAM inconclusive, D2 potentiator -3, Sfp PPTase inh 19%, gsp antagonist -2% and gsp ag -8%[15.4 µM].
For CCCc1nnc(NC(=O)CN2C(=O)C3C4C=CC(C4)C3C2=O)s1 (stereo unspecified) the results were Menin-MLL FL inh 1.1, TRPV1 PAM 4, D2 potentiator -4, Sfp PPTase inh 21%, gsp antagonist 6%, gsp ag 9% and ClpP mod -1.4%.
`CCOC(=O)c1ccc(NC(=O)CCc2c(C)nc3ncnn3c2C)cc1` gave Menin-MLL FL inh -0.5, TRPV1 PAM 23, D2 potentiator -13, Sfp PPTase inh -7%, gsp antagonist -1%, gsp ag -6% and ClpP mod -1.0%.
Screening COC(=O)c1ccc(Nc2ccc3nonc3c2[N+](=O)[O-])cc1 returned Menin-MLL FL inh 2.5, TRPV1 PAM 4, D2 potentiator -1, Sfp PPTase inh 5%, gsp antagonist 4%, gsp ag -1%[15.4 µM] and ClpP mod -0.1%.
CNC(=O)c1cc2c(s1)CCCCCC2 was read as Menin-MLL FL inh 0.8, TRPV1 PAM 1, D2 potentiator -10, Sfp PPTase inh -7%, gsp antagonist 4%, gsp ag 19% and ClpP mod 0.4%.
CCN(Cc1ccccc1)S(=O)(=O)c1ccc(OC)cc1 was read as Menin-MLL FL inh 1.3, TRPV1 PAM inconclusive, D2 potentiator 5, Sfp PPTase inh 0%, gsp antagonist -7%, gsp ag -22% and ClpP mod 0.0%.
For CCOc1ccc(OCC)c(NC(=O)CSCCc2ccccn2)c1 the results were Menin-MLL FL inh -1.5, TRPV1 PAM -16, D2 potentiator -4, Sfp PPTase inh 13%, gsp antagonist -9% and gsp ag inconclusive.
Screening C/C(=N\NC(=O)CCc1c[nH]c2ccccc12)c1ccc([N+](=O)[O-])cc1 returned TRPV1 PAM -9, D2 potentiator 18, Sfp PPTase inh -5%, gsp antagonist -19%, gsp ag 17% and ClpP mod -1.0%.
`O=C(O)c1sccc1Oc1ccc(F)cc1[N+](=O)[O-]` gave Menin-MLL FL inh 4.1, TRPV1 PAM -1, D2 potentiator -1, Sfp PPTase inh 20%, gsp antagonist 3%, gsp ag -9%[15.4 µM] and ClpP mod -6.5%.
For COc1ccc(-n2ncc3c(NCc4ccc5c(c4)OCO5)ncnc32)cc1 the results were Menin-MLL FL inh 2.2, TRPV1 PAM 28, D2 potentiator 12, Sfp PPTase inh -17%, gsp antagonist 31%[activator], gsp ag inconclusive and ClpP mod inconclusive.
Cc1cc(=O)n2cc(-c3ccccc3)nc2[nH]1 was read as Menin-MLL FL inh 2.8, TRPV1 PAM inconclusive, D2 potentiator -14, Sfp PPTase inh 11%, gsp antagonist 5%, gsp ag -31%[inhibitor] and ClpP mod 0.0%.
Screening CCCCCNC1=CC(=O)CC(c2ccccc2)C1 (stereo unspecified) returned Menin-MLL FL inh 2.2, D2 potentiator -10, Sfp PPTase inh -19%, gsp antagonist 2%, gsp ag 31% and ClpP mod -2.0%.
Screening CC(=O)c1ccc(N2CCN(CC(=O)Nc3cc(C)on3)CC2)cc1 returned Menin-MLL FL inh 0.4, TRPV1 PAM 1, D2 potentiator 1, Sfp PPTase inh 17%, gsp antagonist 3% and gsp ag 1%.
For Cc1ccc(NC(=O)CSc2nnc3n2CCCCC3)cc1S(=O)(=O)N1CCOCC1 the results were D2 potentiator -11, gsp ag inconclusive and ClpP mod -4.9%.
For Cc1ccc2c(c1)C(=O)N1[C@H]3c4ccccc4OC[C@@H]3[C@H](c3ccccc3)[C@]1(C)C(=O)N2 the results were D2 potentiator -11, gsp antagonist -10%, gsp ag 22% and ClpP mod -15%.
CC(=O)Oc1cccc(C2C3=C(CC(C)(C)CC3=O)Nc3ccccc3N2C(C)=O)c1 (stereo unspecified) was read as Menin-MLL FL inh -0.4, TRPV1 PAM -8, D2 potentiator 1, Sfp PPTase inh 9%, gsp antagonist 4%, gsp ag 6%[15.4 µM] and ClpP mod inconclusive.
For CSCCC(NS(=O)(=O)c1ccc2[nH]c(=O)c(=O)[nH]c2c1)C(=O)O (stereo unspecified) the results were Menin-MLL FL inh 2.8, TRPV1 PAM -3, D2 potentiator -4, Sfp PPTase inh -19%, gsp antagonist 2%, gsp ag -2%[15.4 µM] and ClpP mod 22%.
For Cc1ccc2nc(C)cc(Nc3ccc4c(c3)OCCO4)c2c1 the results were Menin-MLL FL inh 3.0, TRPV1 PAM 28, D2 potentiator -31, Sfp PPTase inh inconclusive, gsp antagonist 11%, gsp ag 0% and ClpP mod -1.8%.
COc1ccc(C(=O)COC(=O)CNC(=O)c2ccc(C)s2)c(OC)c1 was read as D2 potentiator -4, gsp antagonist -6%, gsp ag -35%[inhibitor] and ClpP mod -0.2%.
For O=C1/C(=C/c2ccc3c(c2)OCO3)CCC/C1=C\c1ccc2c(c1)OCO2 the results were Menin-MLL FL inh 16, TRPV1 PAM 5, D2 potentiator -11, Sfp PPTase inh 1%, gsp antagonist -7%, gsp ag -9% and ClpP mod 28µM*.
Screening Cc1nn(-c2ccccc2)c(C)c1/C=N\N1CCN(c2ccc(Cl)cc2)CC1 returned Menin-MLL FL inh -0.4, TRPV1 PAM 8, D2 potentiator -14, Sfp PPTase inh 25µM*, gsp antagonist 12%, gsp ag 3% and ClpP mod -0.8%.
For COc1ccc(C(=O)N/C(=C\c2cn(S(=O)(=O)N(C)C)c3ccccc23)C(=O)NC(C)C)cc1 the results were Menin-MLL FL inh 1.5, TRPV1 PAM 2, D2 potentiator -5, Sfp PPTase inh -6%, gsp antagonist -12%, gsp ag -3% and ClpP mod 0.0%.
CS(=O)(=O)c1cccc(C(=O)N(CCc2ccccc2)Cc2cccs2)c1 was read as Menin-MLL FL inh -1.8, TRPV1 PAM -24, D2 potentiator -4, Sfp PPTase inh -15%, gsp antagonist -13% and gsp ag -11%.
`CN(CC(=O)Nc1ccc(S(=O)(=O)N2CCOCC2)cc1)Cc1ccc(F)cc1` gave TRPV1 PAM -16, D2 potentiator -19, gsp antagonist -4%, gsp ag inconclusive and ClpP mod -0.5%.
COc1ccc(/C=C/C(=O)NC(=S)N2CCOCC2)cc1 was read as Menin-MLL FL inh -10, TRPV1 PAM 0, D2 potentiator -1, Sfp PPTase inh -6%, gsp antagonist -2%, gsp ag -1% and ClpP mod 4.3%.

High-throughput results from PubChem.
